TRPV1 potentiator = HTS Assay for Compounds that Act as Potentiators of the Vanilloid Receptor 1. AID 540277, 2011. potentiation, % at 8.33 µM. hit rate 0.02% among 320,000. TRPV1-expressing cells, Fluo-8 calcium influx, capsaicin EC20 potentiation; host cell line not named in the record; control for the full effect not named in the record. Transient receptor potential cation channel subfamily V member 1 (Homo sapiens), Q8NER1; active means potentiation above 80%; inconclusive means 30% to 80%; inactive means below 30%; further: 0% is about no effect
Target sequence (Q8NER1 whole entry, looked up): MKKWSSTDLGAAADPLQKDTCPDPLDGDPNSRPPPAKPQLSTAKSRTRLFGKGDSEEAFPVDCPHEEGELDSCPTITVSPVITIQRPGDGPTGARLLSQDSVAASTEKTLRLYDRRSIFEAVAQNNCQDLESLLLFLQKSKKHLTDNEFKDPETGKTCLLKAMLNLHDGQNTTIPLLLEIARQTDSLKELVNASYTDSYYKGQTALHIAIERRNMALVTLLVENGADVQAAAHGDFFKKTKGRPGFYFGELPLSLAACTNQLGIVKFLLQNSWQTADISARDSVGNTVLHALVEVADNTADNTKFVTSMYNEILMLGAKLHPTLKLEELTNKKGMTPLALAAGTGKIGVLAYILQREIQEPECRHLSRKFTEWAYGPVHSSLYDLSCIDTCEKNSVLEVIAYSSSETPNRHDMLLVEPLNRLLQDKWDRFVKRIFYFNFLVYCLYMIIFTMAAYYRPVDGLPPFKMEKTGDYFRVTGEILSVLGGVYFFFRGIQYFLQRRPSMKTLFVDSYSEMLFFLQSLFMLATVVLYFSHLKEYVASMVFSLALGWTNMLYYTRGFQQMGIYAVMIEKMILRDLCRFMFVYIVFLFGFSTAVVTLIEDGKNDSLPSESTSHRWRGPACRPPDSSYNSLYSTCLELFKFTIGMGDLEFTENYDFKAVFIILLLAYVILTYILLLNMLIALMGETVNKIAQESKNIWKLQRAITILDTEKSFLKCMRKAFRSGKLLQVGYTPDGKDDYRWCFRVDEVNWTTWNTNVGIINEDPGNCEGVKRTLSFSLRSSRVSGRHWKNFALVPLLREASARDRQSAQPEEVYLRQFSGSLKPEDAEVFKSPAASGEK
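Fluo-8 calcium influx in TRPV1-expressing cells, kinetic read (ex 480/em 520 nm). Compound added and read 3 min for agonist activity, followed by capsaicin at EC20 final and 2 min further read for enhancement.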
ClpP mod = qHTS Assay for Activators of ClpP; ATP-dependent Clp protease proteolytic subunit (Bacillus subtilis (strain 168)), P80244; purified B. subtilis ClpP, FRET peptide cleavage, 20 min; Potency, µM (series often up to 57.5 µM), for inactives: at the highest dose activity change, negative = active; hit rate 1.9% among 340,000; active = well fitted falling curve with a large enough effect; inconclusive = small, poorly fitted or top-dose-only effect; inactive = no such curve, though single readings can be large or run the other way; further: potency means the concentration at half of the fitted maximal effect; the source files actives as falling curves though it sought activators and does not explain the sign; nearly all actives have a fitted effect of over 65% in size; many hits overshoot -100%
Target sequence (P80244 whole entry, looked up): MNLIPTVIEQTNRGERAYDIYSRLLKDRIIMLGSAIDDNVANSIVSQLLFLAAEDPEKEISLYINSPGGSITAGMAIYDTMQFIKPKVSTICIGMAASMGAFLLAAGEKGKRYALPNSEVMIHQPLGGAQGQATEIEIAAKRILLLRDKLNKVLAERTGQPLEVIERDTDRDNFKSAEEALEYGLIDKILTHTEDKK
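Purified B. subtilis ClpP, 10 microg/mL final in Tris/HCl pH8 with KCl, BSA, glycerol and Tween-20, cleaved an Abz/nitrotyrosine-quenched decapeptide. Fluorescence (ex 320, em 430) was read at 0 and 20 min at room temperature. Delta was normalized to 5.8 microM ADEP and DMSO/no-enzyme controls.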
gsp agonist = qHTS for Agonist of gsp, the Etiologic Mutation Responsible for Fibrous Dysplasia/McCune-Albright Syndrome: qHTS; gsp mutant cells, cAMP HTRF, 30 min; control for the full effect not named in the record; Potency, µM (doses to about 76.9 µM), without a hit: at the highest dose activation (cAMP increase), hits mostly activators; hit rate 0.13% among 340,000; AID 624287, 2012; active = well fitted activation curve with a large enough effect; inconclusive = small, poorly fitted or top-dose-only effect, or another doubt; inactive = no such curve, though single readings can be large or run the other way; cell line not stated here;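 further: phosphodiesterase inhibitor Ro 20-1724 added with compounds to block cAMP breakdown; potency means the concentration at half of the fitted maximal effect; nearly all actives have a fitted effect of over 60% in size; about a fifth of the inactives were tested at one dose only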
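Cells in DMEM/10% FBS with G418 were pretreated with compounds in DMSO plus […] (300 uM stock) for 30 min at 37C. cAMP was measured by HTRF (cAMP-d2 plus anti-cAMP antibody-K) after 30 min at room temperature.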
Sfp inh = qHTS Assay for Inhibitors of Bacillus subtilis Sfp phosphopantetheinyl transferase (PPTase). Potency, µM, inactives show max response, negative = inhibition, actives largely listed as inhibitors. Biochemical Sfp PPTase activity, qHTS. hit rate 3.5% among 310,000. 4'-phosphopantetheinyl transferase ffp (Bacillus subtilis), Q9F4F7; active means well fitted inhibition curve with a large enough effect; inconclusive means small, poorly fitted or top-dose-only effect, or another doubt; inactive means no such curve, though single readings can be large or run the other way;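 further: the enzyme is Sfp with the accession as filed and its product quenches rhodamine fluorescence; potency means the concentration at half of the fitted maximal effect; 0% = enzyme reaction without inhibitor and -100% = no enzyme wells; top concentration of the series not given in the record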
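Step 1, compound plus 15 nM Sfp-PPTase, 15 min, room temperature. Step 2, add rhodamine-CoA (5 uM) and BHQ-2-YbbR (12.5 uM). Step 3, read 525/598 nm fluorescence at 0 and 30 min.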
gsp antagonist = qHTS for Antagonists of gsp, the Etiologic Mutation Responsible for Fibrous Dysplasia/McCune-Albright Syndrome: qHTS. Potency, µM (series often up to 76.9 µM), without a hit: at the highest dose activity change, negative = inhibition, actives largely listed as inhibitors. hit rate 0.4% among 340,000. AID 624288, 2012. gsp-mutant cells, cAMP HTRF, 30 min; control for the full effect not named in the record; active = falling curve of any shape with a large fitted effect; inconclusive = falling curve, mostly with a smaller effect; inactive = flat or rising curve; cell line not stated here;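 further: intracellular cAMP measured with PDE inhibitor Ro 20-1724 present during compound exposure; potency means the concentration at half of the fitted maximal effect; on the % scale 0 is the no-effect control and ±100 the full control effect; nearly all actives have a fitted effect of over 65% in size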
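HTRF cAMP read-out (cAMP-d2 plus anti-cAMP antibody-K in lysis buffer, 30 min RT). Before lysis, cells are exposed to compounds with […] for 30 min at 37C in DPBS containing Ca/Mg, BSA and Tween 20.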
D2 PAM = Beta-Arrestin HTS for Positive Allosteric Modulators of the Human D2 Dopamine Receptor: Potentiators | D(2) dopamine receptor (Homo sapiens), P14416 | DiscoveRx D2 beta-arrestin cells, luminescence, 90 min; 100% = 57 uM dopamine signal | potentiation, % (test concentration not listed) | hit rate 0.23% among 360,000 | AID 624464, 2012; active = potentiation of 50% or more; inconclusive = 30% to 50%; inactive = 30% or less;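 further: compound concentration not given in the record; tested on top of an EC20 dose of dopamine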
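D2 cells co-treated with compound plus 50 nM dopamine (EC20) for 90 min at 37 deg C to detect potentiation. Beta-arrestin recruitment was read as enzyme-fragment luminescence after 1 h at ambient temperature. Full response was set by 57 uM dopamine.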
Menin-MLL FL inh = qHTS Assay for Inhibitors Targeting the Menin-MLL Interaction in MLL Related Leukemias: Competition With Fluorescein Labeled MLL-derived Peptide; Fluorescence polarization, fluorescein-MLL peptide displacement from menin; 290,000 tested, under 10 active; AID 1766, 2009; FP activity change, % at 61.4 µM; inconclusive = falling polarisation curve, or a change in total fluorescence; inactive = total fluorescence flat and polarisation flat or rising; no compound was filed as active; the % refers to the polarisation; negative = inhibition;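 further: % of control where 0% means no effect; inhibitors lower the polarisation; unlabelled MLL peptide was the positive control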
Starred values were filed as active, the others as inactive; ? = inconclusive; / = no result given; & = joins results of further samples; [ ] = remark or other dose.

SMILES	TRPV1 potentiator	ClpP mod	gsp agonist	Sfp inh	gsp antagonist	D2 PAM	Menin-MLL FL inh
Cc1ccc(C2c3[nH]c4ccccc4c3C[C@H]3C(=O)N(c4ccccc4C(=O)N4CCC[C@H]4C(=O)O)C(=O)N23)cc1 (stereo not given in full)	26	-0.1%	/	4%	5%	-32	-7.0
COc1ccc(O[C@H]2C=C[C@@H](c3ccccc3)O[C@@H]2COC(=O)CC/C(C)=N/OC[C@@H](O)[C@H]2O[C@@H]3OC(C)(C)O[C@@H]3[C@H]2O)cc1	17	/	/	1%	/	/	2.5
CCOC(=O)C1CCNC(=O)C1=O (stereo not given)	/	1.3%	?	/	5%	12	/
CCOC(=O)c1nn(-c2cccc(C)c2)c2nc(-c3ccccc3)c(C#N)c(=O)n12	3	32µM*	-1%	10%	18%	7	4.7
CC1CCc2c(sc3nc(SCC(=O)O)n(-c4ccccc4)c(=O)c23)C1 (stereo not given)	-12	-1.9%	18%	-14%	-50%	5	4.2
Cc1ccc(N=C2NC(=O)CS2)c(C)c1	1	1.0%	27%	-1%	11%	-12	-2.6
O=C(Nc1cccc2cccnc12)c1ccccc1Cl	/	/	-3%[15.4 µM]	/	-17%	-8	/
Cc1ccc(NS(=O)(=O)c2c(C)[nH]c(C)c2C(=O)N2CCCC2)cc1	1	-1.0%	-10%	9%	1%	5	/
CCOC(=O)C(NC(=O)Nc1ccc(F)cc1F)(Oc1ccc(F)cc1)C(F)(F)F (stereo not given)	1	-0.9%	0%[15.4 µM]	5%	21%	-4	-5.1
Cn1c(=O)c2c(nc(N/N=C/c3ccc(OC(=O)c4ccco4)cc3)n2Cc2ccccc2)n(C)c1=O	3	28µM*	-2%	?	-33%	-22	2.6
Cc1cc(C)c(NC(=O)C2CCCCN2C)c(C)c1 (stereo not given)	3	0.6%	11%	-1%	4%	-17	0.7
CC(=O)c1ccc(NC(=O)C2CCCN(S(=O)(=O)c3ccc(-n4cnnn4)cc3)C2)cc1 (stereo not given)	3	/	?	4%	-10%	-3	-1.5
CNS(=O)(=O)c1cccc(C(=O)NCC(c2cccs2)N(C)C)c1 (stereo not given)	1	-3.4%	-10%	17%	10%	-6	5.1
O=C(Cc1ccccc1)NCCN1CCCC1	2	/	-4%[15.4 µM]	21%	7%	-4	2.3
CCOC(=O)Nc1ccc2c(C)cc(=O)oc2c1	11	117%	-30%	16%	9%	-15	0.3
CSCC[C@H](NC(=O)c1ccco1)c1nnc2ccccn12	0	-2.4%	29%	10%	12%	-8	0.1
Cc1cc(NC(=O)CN(C)CC(=O)Nc2ccc(F)c(F)c2F)no1	-3	0.1%	-24%	/	2%	-2	/
CC1=NN(C(C#N)c2ccccc2C)C(C)(C)C1 (stereo not given)	9	-0.8%	16%	18%	11%	3	-6.4
C=CCn1c(CNC(=O)CCC)nc2ccccc21	/	58%	?	/	-1%	-8	/
CCC(C(=O)NCC1CCCO1)N(Cc1ccccc1)C(=O)CNS(=O)(=O)c1ccccc1 (stereo not given)	0	-0.2%	-2%[15.4 µM]	25%	13%	-9	0.1
COc1ccc(/C=C/C(O)=C2/C(=O)NC3(C)CC2c2ccccc2O3)c(OC)c1OC (stereo not given)	-1	-12%	2%	11%	-12%	-14	0.5
CCCCn1nnnc1NCc1ccc(OC)c(OC)c1OC	-1	-1.3%	-1%	8%	4%	-21	-5.0
COc1ccc(C(=O)N2CCN=C2SCc2cccnc2)cc1OC	-4	0.8%	?	14%	5%	-4	-1.3
Cc1ccc2[nH]cc(CCNC(=O)C3CCCO3)c2c1 (stereo not given)	-7	-11%	-2%	20%	1%	-38	-0.9
COc1ccc(Cc2nnc(SC)[nH]c2=O)cc1OC	-6	-3.5%	9%	-9%	-8%	-3	0.2
(next part)
SMILES	TRPV1 potentiator	ClpP mod	gsp agonist	Sfp inh	gsp antagonist	D2 PAM	Menin-MLL FL inh
CC(NC(=O)c1ccccc1SCC(=O)N1CCCC1)c1ccccc1 (stereo not given)	6	-1.9%	9%[15.4 µM]	/	10%	-8	/
CCN(C(=O)/C=C/c1ccc(OC)cc1)C1CCS(=O)(=O)C1 (stereo not given)	-6	/	2%[15.4 µM]	/	2%	4	/
CCCCN(C(=O)CSc1nnc(-c2ccccc2)o1)c1c(N)n(CCC)c(=O)[nH]c1=O	-3	1.1%	-30%	/	1%	1	/
O=C(O)c1ccc(CSc2nc3ccccc3c(=O)n2-c2ccccc2)cc1	-3	-1.0%	9%	25%	2%	26	-0.6
CCOc1ccc(CCNC(=O)c2ccccc2OCc2c(C)noc2C)cc1OCC	1	-3.4%	?	/	-1%	18	/
COc1ccc(NC(=O)CSc2nccn2Cc2ccc(F)cc2)c(OC)c1	-5	-20%	14%	10%	-4%	-9	/
CCOc1ccc(/C=N/Nc2cc(=O)n(C)c(=O)n2C)cc1	-11	1.2%	0%[15.4 µM]	-13%	-15%	-8	2.4
CCNc1nc(NCC)nc(ON=C(C)C)n1	8	/	/	21%	/	/	4.5
O=C(NC1CCS(=O)(=O)C1)C1CCCC1 (stereo not given)	-6	-1.0%	-3%	/	8%	0	/
CCOC(=O)c1ccccc1NC(=O)COC(=O)CCC(=O)c1ccc(C)cc1	7	-0.4%	-4%	/	9%	-12	/
CC1Cc2ccccc2N1C(=O)Cn1nnc(-c2ccccc2NC(=O)C2CCC2)n1 (stereo not given)	11	-2.5%	4%	-2%	8%	-9	3.5
COc1ccccc1Cn1c(=S)[nH]c2cc(C(=O)NCCCN3CCOCC3)ccc2c1=O	10	-1.3%	-17%	-11%	-13%	-19	-2.4
COC(=O)c1cc(=O)c2ccc(OC)cc2o1	0	12%	6%	9%	3%	-9	-1.0
COCCN(C(=O)/C=C/c1ccccc1)c1nnc(-c2cccnc2)s1	5	/	-5%[15.4 µM]	9%	-7%	-3	-0.7
Cc1ccc2nc(-c3ccc(NC(=O)CSc4ccccc4)cc3)[nH]c2c1	8	151%	-13%	-3%	0%	5	-0.9
O=C(Cn1cnc2scc(-c3ccc(F)cc3)c2c1=O)NCC(c1ccco1)N1CCCC1 (stereo not given)	-10	-4.1%	-26%	/	1%	-10	/
Cn1nc(-c2ccc(Cl)cc2)c2cc(C(=O)N3CCCC3)sc21	/	?	-14%	15%	?	-14	-1.8
O=S(=O)(NC1CCCCC1)c1cccc2nsnc12	29	/	18%	0%	7%	-2	0.9
O=C(COc1ccc([N+](=O)[O-])cc1)Nc1ccc(C(=O)Nc2ccccc2C(=O)O)cc1	1	-3.5%	-26%	-8%	?	-10	-0.1
CCOCCCNC(=S)N1CCC(NC(=O)c2ccco2)CC1	0	-0.1%	7%	-3%	14%	-5	-2.0
Cn1c(SCC(N)=O)nnc1-c1cnccn1	9	-1.5%	-15%	6%	4%	-11	2.7
CCOC(=O)Cn1c(=NC(=O)CSC(C)=O)sc2cc(F)ccc21	17	-14%	?	28%	18%	-3	2.1
C[C@@H]1CC(=O)[C@H]2CC(CO)=CCC[C@@H]2[C@@]1(C)CC/C(=C/CO)CO	5	-0.3%	/	/	-14%	-54	/
CN(CCC1CCOCC1)C(=O)c1cc(COc2c(F)cccc2F)on1	-17	2.2%	7%	16%	-11%	3	/
Cc1ccc(N=Cc2nc(-c3ccco3)oc2O)cc1	-21	-3.4%	0%	9%	-1%	-11	-3.0
New compounds follow
SMILES	TRPV1 potentiator	ClpP mod	gsp agonist	Sfp inh	gsp antagonist	D2 PAM	Menin-MLL FL inh
O=C(Nc1nnc(-c2ccco2)o1)c1ccc(S(=O)(=O)N2CCOCC2)cc1	-9	1.5%	-33%[inhibitor]	-14%	-8%	-8	-0.5
O=C(Cc1c(F)cccc1Cl)Nc1ccc(S(=O)(=O)Nc2nccs2)cc1	6	/	12%[15.4 µM]	14%	-1%	1	/
Cc1cc(NC(=O)COC(=O)CCS(=O)(=O)c2cc(Cl)ccc2Cl)no1	-1	/	-34%[inhibitor]	3%	-4%	-5	-0.7
COc1ccc2nc(NC(=O)C3CCCN(S(=O)(=O)c4cccs4)C3)sc2c1 (stereo not given)	-1	0.9%	-52%[inhibitor]	13%	-20%	6	-2.8
CC[C@H]1OC(=O)C[C@@H](O)[C@H](C)[C@@H](O[C@@H]2O[C@H](C)C[C@H](N(C)C)[C@H]2O)[C@@H](CC=O)C[C@@H](C)C(=O)C=C[C@]2(C)O[C@H]2[C@@H]1C	?	/	/	-1%	/	/	0.3
O=C(c1cnc2sccn2c1=O)N1CCCc2ccccc21	2	-1.5%	?	3%	1%	-4	1.5
Cc1cccc(N/C(N)=N/c2nc(CSc3ccc(Cl)cc3)cc(=O)[nH]2)c1	0	-2.3%	7%	12%	-7%	-10	1.4
Oc1ccc(Cl)cc1/C=C/c1ccc2cccc(O)c2n1	1	/	5%	13%	-14%	-9	24
COc1ccc(C)cc1NC(=O)CCNC(=O)Cn1ccc2ccccc2c1=O	-12	3.6%&-4.7%	-39%	9%	10%	-11	2.6
O=C(CCc1ccccc1)Nc1ccc(NC(=O)C2CC2)nc1	9	-1.3%	?	13%	17%	-16	-1.8
COc1cc(/C=C2\SC(c3ccccc3)=NC2=O)cc(Cl)c1O	-14	/	22%[15.4 µM]	7.9µM*	-34%	-11	?
CCOc1ccccc1Oc1coc2cc(O)ccc2c1=O	1	32µM*	-40%[inhibitor]	9%	-3%	1	2.2
Cc1ccc(S(=O)(=O)c2nc(-c3ccco3)oc2N2CCC(C)CC2)cc1	-4	-9.0%	-5%[15.4 µM]	-7%	-5%	-14	/

Screening data from PubChem.
